# KCNQ2 pot = potentiators of rat KCNQ2 potassium channel; O88943; CHO-K1 KCNQ2, FluxOR thallium flux fluorescence; active compounds read high; B-score at 10 µM; actives 0.54% (n = 310,000);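 active = fluorescence ratio B-score at least 3 SD of library B-scores, with initial fluorescence B-score within 3 SD, cut at about 5.3 in these data; same plate scores as AID 2156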;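 also: B-score of peak minus minimum over baseline fluorescence ratio after K+ and Tl+ stimulus; positive B-score means potentiation of KCNQ2 with more thallium influx and brighter signal; only the inactives scoring about 0 or higher are listed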
# Target sequence (O88943 whole entry, looked up): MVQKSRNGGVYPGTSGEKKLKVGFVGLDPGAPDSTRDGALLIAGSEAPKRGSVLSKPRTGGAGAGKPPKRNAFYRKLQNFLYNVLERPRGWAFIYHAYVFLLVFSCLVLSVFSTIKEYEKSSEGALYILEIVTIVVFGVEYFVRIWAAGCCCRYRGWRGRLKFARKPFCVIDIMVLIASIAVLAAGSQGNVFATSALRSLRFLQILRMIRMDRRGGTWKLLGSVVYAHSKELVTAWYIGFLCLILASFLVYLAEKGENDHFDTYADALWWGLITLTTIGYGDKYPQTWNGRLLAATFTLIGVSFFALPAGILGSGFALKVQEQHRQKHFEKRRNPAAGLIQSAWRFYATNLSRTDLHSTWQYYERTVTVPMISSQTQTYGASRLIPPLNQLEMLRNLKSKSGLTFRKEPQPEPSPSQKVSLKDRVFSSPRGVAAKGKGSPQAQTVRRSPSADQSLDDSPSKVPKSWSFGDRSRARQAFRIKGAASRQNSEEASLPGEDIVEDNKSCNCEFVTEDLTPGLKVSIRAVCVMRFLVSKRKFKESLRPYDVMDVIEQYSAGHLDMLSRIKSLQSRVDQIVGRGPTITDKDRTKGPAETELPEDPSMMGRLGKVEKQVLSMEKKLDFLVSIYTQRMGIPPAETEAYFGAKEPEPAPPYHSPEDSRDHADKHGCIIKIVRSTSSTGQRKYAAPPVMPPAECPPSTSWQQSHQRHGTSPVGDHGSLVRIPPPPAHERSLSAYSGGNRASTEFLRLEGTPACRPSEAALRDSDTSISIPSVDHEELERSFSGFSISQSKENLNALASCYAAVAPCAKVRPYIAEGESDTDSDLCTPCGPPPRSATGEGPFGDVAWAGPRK
# KCNQ2 pot baseline = recorded beside KCNQ2 pot, whose call it bears; B-score; compound at 10 µM; measured here: initial fluorescence intensity artifact check;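 brightness before thallium and not channel activity; 0 = typical well and far values either way flag optical interference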
# * hit, by the source's call. Only part of the results is shown, so the mix of outcomes need not match the whole.
KCNQ2 pot baseline	KCNQ2 pot	canonical_smiles
0	2.4	COc1ccc(-n2c(-c3ccc(Cl)cc3)c[n+]3c2CCCCC3)cc1
-0.88	1.9	CCOC(=O)C1CCCN(C(=O)c2cccc([N+](=O)[O-])c2C)C1 (centres undefined)
4.2	0.23	COc1cc(OC)cc(C(=O)N=c2sc3ccccc3n2C)c1
-0.75	1.1	CCN(CC)S(=O)(=O)c1ccc(Cl)c(NC(=O)CCCCl)c1
1.1	0.23	COc1ccc(CN(C(=O)c2snc(C(N)=O)c2N)C(C(=O)NC2CCCC2)c2ccco2)cc1 (centres undefined)
-0.09	0.29	COc1ccc(C(=O)NCc2cc3ccccc3n2C)cc1
-0.85	2.1	CC1CCCCN1C(=O)Cn1cc(C(=O)c2ccco2)c2ccccc21 (centres undefined)
1.1	0.01	CCCOc1cccc(C(=O)NC(=S)Nc2ccccc2)c1
3.3	0.2	CN(CC(=O)Nc1ccccc1Cl)C(=O)c1cccc(S(=O)(=O)N2CCN(Cc3ccccc3)CC2)c1
-0.93	1.2	CC(=O)c1ccc(N2CCN(S(=O)(=O)c3ccc4c(c3)CC(C)N4C(C)=O)CC2)cc1 (centres undefined)
-0.17	1.7	C=CCn1c2[n+](c3ccccc3c1=O)CCCCC2
-1.2	1.1	Cc1cc(C)c([N+](=O)[O-])cc1NC(=O)CCS(=O)(=O)c1ccccc1
1.2	0.04	COc1ccccc1-n1cnc2cc(NS(=O)(=O)c3ccccc3)ccc21
-0.89	0.66	COc1cc(OC)cc(C(=O)Nc2ccc(N(C)C)c3ccccc23)c1
0.11	0.9	CSc1ncccc1C(=O)NCC1CCCCC1
0.37	1.4	CCOc1ccc(CCNc2cc(C)nc3ncnn23)cc1OCC
-1.4	1.5	COc1ccc(S(=O)(=O)N2CCN(c3ncccn3)CC2)cc1
-0.59	2.3	Cc1sc(NC(=S)NC(=O)c2ccccc2)c(C#N)c1C
-0.66	1.9	CN(c1ccc(Cl)cc1)S(=O)(=O)c1nnc(NC(=O)c2ccco2)s1
-0.43	0.39	Cc1ccc(C)c(S(=O)(=O)NCc2ccc(C(=O)N3CCCCCC3)cc2)c1
-0.03	0.12	O=C1c2ccccc2C2=Nc3ccccc3SC(c3ccccc3F)C12 (centres undefined)
-0.04	1.1	O=C1CCCc2c1cc(-c1ccccc1)n2-c1ccc(O)cc1
-1.6	0.85	Cn1cc(Br)c(-c2cccc(NC(=O)CCCC(=O)O)c2)n1
-0.04	0.89	Cc1ccc(O)c(CNn2cnnc2)c1

# Filtered by structure, those above containing a nitro group on carbon
KCNQ2 pot baseline	KCNQ2 pot	canonical_smiles
-0.88	1.9	CCOC(=O)C1CCCN(C(=O)c2cccc([N+](=O)[O-])c2C)C1 (centres undefined)
-1.2	1.1	Cc1cc(C)c([N+](=O)[O-])cc1NC(=O)CCS(=O)(=O)c1ccccc1

# (list continues)
KCNQ2 pot baseline	KCNQ2 pot	canonical_smiles
-0.02	1.6	Cc1cc(C)nc(-n2nc(C)c(Br)c2Nc2ccc(Br)cc2)n1
-2.2	1.1	Cc1ccc(N2CCCCn3c2nc2c3c(=O)n(CC(=O)O)c(=O)n2C)cc1
1.6	0.45	CCCCCC[N+](C)(C)CCSSCC[N+](C)(C)CCCCCC
-0.65	1.1	Cn1ccnc1SCC(=O)c1c[nH]c2ccccc12
-0.55	1.7	CNc1c(NS(=O)(=O)c2cc(OC)ccc2OC)c(=O)oc2ccccc12
0.49	0.05	Cc1ccc(-c2csc3ncnc(SCC(=O)Nc4nnc(C)s4)c23)cc1
-2.1	0.73	NS(=O)(=O)c1ccc(NC(=O)C2Cc3ccccc3C(=O)O2)cc1 (centres undefined)
3	0.19	Cc1nc(=O)c(-c2ccccc2)c(C)n1-c1ccc(O)cc1
-0.58	1.6	COc1cccc(NC(=O)Nc2cccc(C(=O)O)c2)c1
1.8	1.1	CC(CCc1ccccc1)NC(=O)COC(=O)c1cccs1 (centres undefined)
0.64	0.05	O=C(Cc1cccs1)Nc1nnc(-c2ccccc2)s1
-0.26	0.28	O=C(COc1cccc2c1CCNC2=O)Nc1ccc(F)cc1
-0.59	0.39	CCOC(=O)CSc1nc2ccccc2c(=O)n1CCCCCC(=O)NCc1ccco1
-2.2	4	O=c1cc(CN2CCN(C/C=C/c3ccccc3)CC2)c2cc(O)ccc2o1
0.72	0.17	Cc1nn(C)cc1NC(=O)Cn1nc(C(F)(F)F)cc1C1CC1
-0.37*	6.4*	O=C(Nc1ccc(Oc2cccc3ccccc23)cc1)c1ccco1

# Looked up above.
# Result for Cc1nn(C)cc1NC(=O)Cn1nc(C(F)(F)F)cc1C1CC1 in KCNQ2 pot baseline: 0.72
# Result for CCOC(=O)CSc1nc2ccccc2c(=O)n1CCCCCC(=O)NCc1ccco1 in KCNQ2 pot baseline: -0.59

# Next section:
KCNQ2 pot baseline	KCNQ2 pot	canonical_smiles
-0.76	1.6	CCc1cc(=O)oc2cc(OCC=C(C)C)ccc12
-0.04	1.3	O=C(O)CC1S/C(=N\N=C2\C(=O)Nc3ccccc32)N(c2ccc(O)cc2)C1=O (centres undefined)
-0.66	1.9	Cc1ccccc1C(=O)N1CCc2cc(-c3csc(NC(=O)CN4CCCC4)n3)ccc21
-0.15	1.5	COc1ccc(Nc2ccc(N3C(=O)CCCC3=O)cc2[N+](=O)[O-])c(OC)c1
-0.18	0.5	C=CCOCC(O)Cn1c(N2CCCC2)nc2c1c(=O)[nH]c(=O)n2C (centres undefined)
-3.1	0.7	Cc1cccc(NC(=O)CCC(=O)OCC(=O)c2ccc(Oc3ccc([N+](=O)[O-])cc3)cc2)c1
0.12	0.83	NC(=O)c1cc(NC(=O)CCc2nc3ccccc3s2)cc(C(N)=O)c1
0.92	1.9	Cc1ccc(S(=O)(=O)N2CCC(NC(=O)c3cccc(C)c3)CC2)cc1
-1.1	1.7	Fc1ccc(/C=N/Nc2nc(-c3cccnc3)nc3ccccc23)cc1
-1	1.3	CCOc1ccc(C(C(=O)NCC2CCCO2)N(CCc2cccc(C)c2)C(=O)c2snc(C(N)=O)c2N)cc1 (centres undefined)
-1	1.7	COc1cc(/C=N/NC(=O)CNC(=O)c2ccncc2)ccc1OC(C)=O
-0.96	0.08	C[C@H]([C@@H](N)C(=O)N[C@@H](C(=O)O)[C@@H]1O[C@H](n2ccc(=O)[nH]c2=O)[C@@H](O)[C@H]1O)[C@@H](O)c1ccc(O)cn1
-1.1	0.43	COc1ccc(-c2ccc(NS(=O)(=O)c3ccc([N+](=O)[O-])cc3)cc2)nn1
-1	2.6	Cc1onc(-c2ccccc2)c1C(=O)NC(=S)Nc1sc2c(c1C#N)CCCC2
0.16	0.46	COc1cc(C(=O)NCC(=O)N/N=C/c2ccc(-c3cccc([N+](=O)[O-])c3)o2)cc(OC)c1OC
0.03	0.67	Cn1c(=O)c2c(ncn2CC(=O)NC2CCCCC2)n(C)c1=O

# Ordered by value in KCNQ2 pot baseline (descending): three from the list above
KCNQ2 pot baseline	KCNQ2 pot	canonical_smiles
0.37	1.4	CCOc1ccc(CCNc2cc(C)nc3ncnn23)cc1OCC
-1	1.3	CCOc1ccc(C(C(=O)NCC2CCCO2)N(CCc2cccc(C)c2)C(=O)c2snc(C(N)=O)c2N)cc1 (centres undefined)
-1.6	0.85	Cn1cc(Br)c(-c2cccc(NC(=O)CCCC(=O)O)c2)n1

# Continuation:
KCNQ2 pot baseline	KCNQ2 pot	canonical_smiles
-0.32	0.06	O=c1oc2ccccc2c(N2CCCC2)c1[N+](=O)[O-]
0.83	0.42	CCC(CC)NC(=O)c1cc(OC)c(OC)c(OC)c1
0.03	0.08	c1cc(CNC2C3CC4CC(C3)CC2C4)ccn1 (centres undefined)
-2.1	1.2	O=C(NCc1ccco1)c1cc([N+](=O)[O-])cc([N+](=O)[O-])c1
1.6	0.74	CCOCCCNC(=O)c1cc(-c2cccnc2)nc2ccc(S(=O)(=O)N3CCC(C)CC3)cc12
1.3	0.03	Cc1ccc(C)n1C(CC(=O)O)c1ccc(C#N)cc1 (centres undefined)
0.36	0.02	O=C(COC(=O)c1cccc(S(=O)(=O)NCc2ccccc2)c1)c1ccccc1
-1.2	0.26	COc1ccc(CCN2CNc3c(c(=O)n(C)c(=O)n3C)C2)cc1
-1.6	0.67	O=C(O)CCCCCNC(=O)CCn1cnc2ccccc2c1=O
0.04	0.44	CC(=O)Nc1nnc(-c2ccc(Cl)s2)o1
0.58	0.02	O=C1CCc2cc(S(=O)(=O)N3CCCC3C(=O)N3CCN(c4ccccc4)CC3)ccc2N1 (centres undefined)
0.06	0.16	O=c1cc(-c2ccccc2O)nc(-c2ccccc2)[nH]1
-0.78	1.9	CCCOc1cccc(C(=O)Nc2ccccc2C(=O)N2CCN(C)CC2)c1
-0.07	0.07	S=C(Cc1cccnc1)N1CCOCC1
0.43	0.1	COc1cccc(C2C(C(=O)Nc3ccccc3)=C(C)N=c3s/c(=C/c4ccc(OCC(=O)O)cc4)c(=O)n32)c1 (centres undefined)
-0.44	0.12	CCOc1ccccc1NC(=O)CSc1nnc(-c2ccco2)o1

# Some of these compounds in order of number of heavy atoms, lowest first.
KCNQ2 pot baseline	KCNQ2 pot	canonical_smiles
-0.44	0.12	CCOc1ccccc1NC(=O)CSc1nnc(-c2ccco2)o1
-0.78	1.9	CCCOc1cccc(C(=O)Nc2ccccc2C(=O)N2CCN(C)CC2)c1
0.43	0.1	COc1cccc(C2C(C(=O)Nc3ccccc3)=C(C)N=c3s/c(=C/c4ccc(OCC(=O)O)cc4)c(=O)n32)c1 (centres undefined)

# The list continues.
KCNQ2 pot baseline	KCNQ2 pot	canonical_smiles
0.2	2.1	CCN(CC)CCn1c(=S)[nH]c2cc(C(=O)N3CC(C)CC(C)C3)ccc2c1=O (centres undefined)
0.06	0.07	Cc1ccc(C(=O)c2cc3c(cc2[N+](=O)[O-])OCCO3)cc1
-1.7	0.64	COc1cc(C(=O)OCC(=O)Nc2cc(C)on2)ccc1OCc1ccccc1Cl
0	0.84	CCN1C(=O)[C@H]2[C@@H](c3ccc(-c4ccc(OC)cc4)cc3)N3CCCC[C@@]3(C(=O)OC)[C@H]2C1=O
-0.2	1.7	COc1ccc(C(C(=O)NCC2CCCO2)N(Cc2cccs2)C(=O)c2snc(C(N)=O)c2N)cc1OC (centres undefined)
-0.2	0.18	O=[N+]([O-])c1cnc(N2CCCCC2)c([N+](=O)[O-])c1
0.4	1.5	CCOC(=O)c1cnc(SC)nc1Nc1cccc(F)c1
1.5	0.26	CC1CN(C(=O)N(C)C)CCN1C(=O)N(C)C (centres undefined)
0.2	2.1	O=C(Nc1cc(=O)c2ccccc2o1)N1CCCCC1
1.2	0.48	CC(=O)N1CCN(CCN(CC2C(C)C=C(C)CC2C)C(C)=O)CC1 (centres undefined)
-0.06	0.76	NS(=O)(=O)c1ccc(CCNC(=O)c2cccc3ccccc23)cc1
1.5	0.25	C/C(=N\NC(=O)c1ccc(Cl)c(S(=O)(=O)Nc2ccccc2Cl)c1)c1ccncc1
-3.3	0.15	COc1ccc(-c2nn(-c3ccccc3)cc2C2CC(c3cccs3)=NN2C(=O)CCCC(=O)O)cc1 (centres undefined)
-1.1	0.68	CCCc1nc(SCC(=O)Nc2nnc(SCC)s2)c2c(=O)n(C)c(=O)n(C)c2n1
0.67	1.2	CCOC(=O)c1c[nH][nH]c1=O
-0.53	2.5	COc1ccc(NC(=O)O/N=C/c2ccc(Br)cc2)cc1
-0.12	0.7	Cc1[nH]c2ccccc2c1C(=O)COC(=O)c1ccc([N+](=O)[O-])s1
0.84	0.08	Cc1cccc(OC(=O)Cn2c(C(F)(F)F)nc3ccccc32)c1
-1.1	0.04	CC1CN(C(=O)c2ccc(COCC(F)(F)F)o2)CC(C)O1 (centres undefined)
0.1	1.6	COc1cc(NC(=O)c2ccccc2)c(C)cc1NC(=O)CC(CC(=O)O)c1ccccc1 (centres undefined)
-0.09	0.67	COc1ccc(CCNC(=O)C(=O)NCC2OCCN2S(=O)(=O)c2ccc3c(c2)OCCO3)cc1 (centres undefined)
1.1	4.3	O=C(Cc1ccc(Br)cc1)Nc1ccccc1Sc1ccccc1
0.17	1.7	O=C(CNC(=O)c1cccs1)NCCN1CCC(Cc2ccccc2)CC1
0.07	0.84	CC1(C)Cc2c(c(-c3ccco3)[nH]c(=O)c2C#N)CO1
0.07	0.45	COC(=O)c1ccc(-c2sc3nc(N4CCOCC4)c4c(c3c2N)CC(C)(C)OC4)o1
0.61	0.72	CCc1cc(C(=O)NC(C)C2CCCO2)cs1 (centres undefined)
-0.19	0.31	O=C(COC(=O)C1CCC(=O)N1)Nc1cc(Cl)ccc1Cl (centres undefined)
0.82	0.08	CC1(O)N(Cc2ccccc2)C(=O)OC12CCCCC2 (centres undefined)
-0.09	0.91	O=C(COC(=O)CN=C1NS(=O)(=O)c2ccccc21)Nc1ccccc1OC(F)F
-2.6	0.91	CCCCn1c(CN(C)Cc2ccccc2)nc2c1c(=O)n(C)c(=O)n2C
0.69	0.07	CCCCNC(=O)Cn1c2c(c(-c3ccccc3Cl)cc1=O)CCC2
0.13	0.8	CCN(CC)CCNC(=O)Cn1nc(-c2ccc(C)cc2)ccc1=O
-2	0.92	COC(=O)c1sccc1NC(=S)Nc1ccc(F)cc1
1.8	0.51	O=C(NC1CCCCC1)C(=O)N(Cc1cccnc1)C(C(=O)NCc1ccco1)c1ccccc1 (centres undefined)
0.33	0.66	C=CCc1cc(Cl)ccc1OCCN(C)C
-0.46	0.3	CCNC(=S)N(CCc1c(C)[nH]c2ccc(C)cc12)Cc1cccs1
-1.2	0.94	O=C(Nc1nccs1)C1CC(=O)N(c2ccccc2Cl)C1 (centres undefined)
-0.89	0.03	CC(C)CNC(=O)c1cc2nc(C3CC3)cc(C(F)(F)F)n2n1
-0.51	0.89	CCOC(=O)c1cccc(NC(=O)Cn2c(CC(=O)N3CCCC3)nc3ccccc32)c1
-0.24	1.2	CCOC(=O)c1cnn(-c2cc(Oc3ccccc3)ncn2)c1N
0.71	0.09	O=C(Nc1ccccn1)C1CCN(C(=O)Nc2ccccc2)CC1
-0.2	0.29	CC1CCCCN1C(=O)c1ccc(S(=O)(=O)N2CCCCC2C)cc1 (centres undefined)

# Screening results (PubChem)
